# Screening results deposited in PubChem BioAssay by several laboratories.
# INS promoter inh – TRM-6 insulin promoter activity inhibition. TRM-6 cells (human fetal islet line), insulin promoter-eGFP reporter, imaging; reporter expression induced with tamoxifen. AID 1273. inhibition, % at 2 µM. 130,000 compounds, 0.9% hits;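 active = inhibition above the mean plus 3 SD, with well images judged a real hit on visual review, cut at about 60% in these data, passing the limit was not always enough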
# HSV augment – increases HSV replication in cells. HSV replication augmentation in cells, fold increase. maximum fold increase. 220,000 compounds, 0.005% hits;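 active = peak rise of 1.5-fold or more in the series; tested in PC3 cells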;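 also: first round at 10 µM; read as green reporter fluorescence; hits show the peak of a series up to 25 µM; 1 = signal of infected wells without compound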
# GALR2 ag – activates the human galanin receptor 2. O43603. GALR2-expressing cells, agonist activation read-out. activation, %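 (tested at 5 µM)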. 140,000 compounds, 0.48% hits. AID 803;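 active = above mean plus 3 SD of all compounds, about 5% in these data, not always enough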;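 also: 0% = vehicle buffer wells and 100% = reference agonist at full effect; tested in CHO reporter cells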
# Target sequence (O43603 whole entry, looked up): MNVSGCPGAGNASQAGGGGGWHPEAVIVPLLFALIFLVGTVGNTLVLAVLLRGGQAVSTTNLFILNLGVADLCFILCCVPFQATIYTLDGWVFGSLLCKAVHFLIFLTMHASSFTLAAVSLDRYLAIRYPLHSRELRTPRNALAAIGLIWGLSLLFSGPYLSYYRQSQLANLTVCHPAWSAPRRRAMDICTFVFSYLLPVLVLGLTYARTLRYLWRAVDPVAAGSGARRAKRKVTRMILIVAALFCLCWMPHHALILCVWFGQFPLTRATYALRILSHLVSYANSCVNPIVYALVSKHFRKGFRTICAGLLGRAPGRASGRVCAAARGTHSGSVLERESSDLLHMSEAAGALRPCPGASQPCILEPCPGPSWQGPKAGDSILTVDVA
# PKD1 kinase inh – blocks activity of human protein kinase D1; Q15139; PKD1 kinase fluorescence polarization assay; inhibition, %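 (about 10 µM by stock and volumes)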; 200,000 compounds, 0.056% hits; AID 797;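 active = inhibition of 50% or more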;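 also: controls were vehicle for no effect and a reference inhibitor for full effect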
# RGS16-Gao HTS – regulators of human RGS16-Galphao interaction; binding response (% of control), % at 10 µM; AID 1441; O15492+P09471; 220,000 compounds, 0.38% hits; bead-based flow cytometry RGS16-Galphao binding, fluorescence; actives lie on both sides;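 active = below 25% or above 175%, edge rows of some plates excepted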;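 also: Galphao activated by GDP with aluminum fluoride before binding; 100% = wells without compound and 0% = beads without RGS; some results beyond the cut were filed as inactive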
# Target sequence (O15492 whole entry, looked up): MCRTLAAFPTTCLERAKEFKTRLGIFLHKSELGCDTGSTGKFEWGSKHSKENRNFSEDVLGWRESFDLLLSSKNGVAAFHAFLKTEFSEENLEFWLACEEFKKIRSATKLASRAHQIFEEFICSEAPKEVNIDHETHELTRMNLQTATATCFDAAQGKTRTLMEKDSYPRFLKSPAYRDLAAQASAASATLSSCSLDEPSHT
# Target sequence (P09471 whole entry, looked up): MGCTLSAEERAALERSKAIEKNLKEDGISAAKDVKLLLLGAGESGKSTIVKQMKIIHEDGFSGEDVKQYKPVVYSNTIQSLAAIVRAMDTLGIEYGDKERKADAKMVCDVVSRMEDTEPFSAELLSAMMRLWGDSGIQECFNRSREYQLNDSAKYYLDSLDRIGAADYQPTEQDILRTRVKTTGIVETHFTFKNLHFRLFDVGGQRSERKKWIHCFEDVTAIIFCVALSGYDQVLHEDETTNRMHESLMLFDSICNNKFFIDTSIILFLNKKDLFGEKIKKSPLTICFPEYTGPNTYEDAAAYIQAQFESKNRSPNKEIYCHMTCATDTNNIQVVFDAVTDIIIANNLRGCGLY
# INS promoter inh cell count – also measured in INS promoter inh; calls as there; normalized cell count, %; measured here: cell count, toxicity; reference of the scale not given here;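 cells exposed to compound for 48 h; stained nuclei by imaging scaled within each plate; lower means fewer cells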
# HSV augment primary fold – second read-out of HSV augment, no call of its own (marks repeat the call); fold increase; compound at 10 µM; measured here: primary screen fold increase 10 uM; tested in PC3 cells;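 GFP signal in the first replicate; 1 = infected wells without compound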
# The depositor's hits bear a star; i = inactive; x = not tested or not shown; & = joins results of further samples.
# Start of the data: the first twelve records, ahead of the listing:
# Order of results: PKD1 kinase inh	GALR2 ag	RGS16-Gao HTS	INS promoter inh cell count	HSV augment	HSV augment primary fold	INS promoter inh
> Cc1cc(=O)oc2cc(OCC(=O)NCc3ccccn3)ccc12
→ -4.1	-1.7	99.9	201.5	i	0.83	-36.1
> O=C(Nc1nnc(-c2ccccn2)o1)c1cccc(Cl)c1
→ -0.4	x	100.2	x	i	0.95	x
> O=C1/C(=C/c2ccccn2)SC(=S)N1NS(=O)(=O)c1ccccc1
→ -2.3	x	96.7	120.5	i	1.06	0.0
> Cc1cc(C)n(-c2ccc(C(=O)OCC(=O)Nc3ccccc3[N+](=O)[O-])cc2)n1
→ -6.7	-0.5	103.2	x	i	0.96	x
> O=C(NCc1nnc2n1CCCCC2)c1ccc(Cl)cc1Cl
→ -9.2	-0.2	101.1	x	i	0.86	x
> O=C(CCC(=O)N1CCN(S(=O)(=O)c2ccccc2)CC1)NC1CCCc2ccccc21 (centres undefined)
→ 1.9	-0.8	109.0	x	i	0.93	x
> Cc1c2cn[nH]c(=O)c2c(C)n1Cc1ccc(F)cc1
→ 4.0	-1.8	107.5	x	i	0.82	x
> Cn1c(=O)n(C)c2cc(S(=O)(=O)NCCOCCO)ccc21
→ 2.7	-2.8	103.4	121.5	i	0.97	34.3
> O=C(CCn1c(SCC(=O)NCc2ccco2)nc2ccccc2c1=O)NCCc1ccccc1
→ -8.6	-0.8	101.7	65.4	i	0.88	33.3
> COc1ccc(S(=O)(=O)Cc2ccc(C(=O)N3CCN(Cc4ccccc4)CC3)o2)cc1
→ -8.2	-0.2	98.3	123.6	i	0.92	-57.1
> COC(=O)/C=C(\C)NC(=O)c1cccs1
→ 2.4	-2.4	99.8	83.0	i	1.06	15.6
> CCOC(=O)c1c(NC(=O)CN2CCN(C(=O)c3ccco3)CC2)sc2c1CCCC2
→ -6.5	0.5	106.8	59.6	x	x	-318.8

# This part in full, repeating the preview:
# Order of results: PKD1 kinase inh	GALR2 ag	RGS16-Gao HTS	INS promoter inh cell count	HSV augment	HSV augment primary fold	INS promoter inh
> Cc1cc(=O)oc2cc(OCC(=O)NCc3ccccn3)ccc12
→ -4.1	-1.7	99.9	201.5	i	0.83	-36.1
> O=C(Nc1nnc(-c2ccccn2)o1)c1cccc(Cl)c1
→ -0.4	x	100.2	x	i	0.95	x
> O=C1/C(=C/c2ccccn2)SC(=S)N1NS(=O)(=O)c1ccccc1
→ -2.3	x	96.7	120.5	i	1.06	0.0
> Cc1cc(C)n(-c2ccc(C(=O)OCC(=O)Nc3ccccc3[N+](=O)[O-])cc2)n1
→ -6.7	-0.5	103.2	x	i	0.96	x
> O=C(NCc1nnc2n1CCCCC2)c1ccc(Cl)cc1Cl
→ -9.2	-0.2	101.1	x	i	0.86	x
> O=C(CCC(=O)N1CCN(S(=O)(=O)c2ccccc2)CC1)NC1CCCc2ccccc21 (centres undefined)
→ 1.9	-0.8	109.0	x	i	0.93	x
> Cc1c2cn[nH]c(=O)c2c(C)n1Cc1ccc(F)cc1
→ 4.0	-1.8	107.5	x	i	0.82	x
> Cn1c(=O)n(C)c2cc(S(=O)(=O)NCCOCCO)ccc21
→ 2.7	-2.8	103.4	121.5	i	0.97	34.3
> O=C(CCn1c(SCC(=O)NCc2ccco2)nc2ccccc2c1=O)NCCc1ccccc1
→ -8.6	-0.8	101.7	65.4	i	0.88	33.3
> COc1ccc(S(=O)(=O)Cc2ccc(C(=O)N3CCN(Cc4ccccc4)CC3)o2)cc1
→ -8.2	-0.2	98.3	123.6	i	0.92	-57.1
> COC(=O)/C=C(\C)NC(=O)c1cccs1
→ 2.4	-2.4	99.8	83.0	i	1.06	15.6
> CCOC(=O)c1c(NC(=O)CN2CCN(C(=O)c3ccco3)CC2)sc2c1CCCC2
→ -6.5	0.5	106.8	59.6	x	x	-318.8
> Cc1oc2nc(SCC(=O)NCc3cccnc3)nc(N)c2c1C
→ 4.2	-0.3	102.2	141.7	i	0.95	-26.3
> CC(C)c1cc(C(=O)N2CCCC(CCC(=O)N3CCN(c4ccccn4)CC3)C2)no1 (centres undefined)
→ x	x	104.1	x	i	0.97	x
> O=[N+]([O-])c1c(NCCCO)cc(Sc2nc3ccccc3s2)c2nonc12
→ -5.2	4.6	74.4	2.5	x	x	25.0
> CCc1ccc(Nc2nnc(SCC(=O)c3ccc4c(c3)NC(=O)CO4)s2)cc1
→ 4.3	x	108.8	106.6	i	0.92	-14.3
> S=C(Nc1ccccc1)Nc1ccc(Cl)cc1Cl
→ -9.8	-1.1	100.8	83.7	i	0.85	-30.4
> O=C(O)CCSc1nnc(-c2ccccc2)n1-c1ccccc1
→ -7.8	-1.5	110.0	103.3	i	0.79	34.8
> C=CCn1c(O)c(N=Nc2nc3ccccc3c(=O)n2-c2ccccc2)c2ccccc21
→ -3.6	-2.6	32.1	x	i	1.08	x
> CCCNC(=O)CN(c1ccc(F)c(Cl)c1)S(C)(=O)=O
→ -6.5	-2.1	104.1	113.0	i	1.29	45.0
> CCCCCCOC(=O)Sc1nc2ccccc2o1
→ 0.3	-2.3	97.4	69.2	i	0.96	-67.9
> N=c1sccn1CC(=O)Nc1ccc(S(=O)(=O)N2CCOCC2)cc1
→ -35.6	-1.3	93.4	106.8	i	0.99	14.3
> COc1ccc(CCNC(=O)COC(=O)C23CC4CC(CC(C4)C2)C3)cc1
→ 5.4	0.4	70.6	93.3	i	1.06	-14.3
> Nc1ccn(Cc2ccc(F)cc2)n1
→ -10.3	x	82.8	x	i	0.96	x
> CCOC(=O)CC1C(=O)NCCN1C(=O)c1cc2c(=O)n3ccccc3nc2s1 (centres undefined)
→ -13.8	-0.6	105.5	x	x	x	x
> CCOC(=O)N=Nc1c(O)n(C)c2ccccc12
→ 3.3	0.0	92.6	x	i	0.93	x
> O=C(C1=C(O)C(=O)N(c2ncccn2)C1c1cccc(Cl)c1)c1ccco1 (centres undefined)
→ 0.8	1.3	107.2	209.2	i	1.21	-42.9
> CNC(=O)c1c(Cl)cnn1-c1ccc(F)cc1
→ -2.3	x	102.3	x	i	0.92	x
> CCCCC[n+]1ccn(C2=C([O-])c3ccccc3C(=O)/C2=N\S(=O)(=O)c2ccc(Cl)cc2)c1
→ x	x	99.8	x	i	0.69	x
> COc1cc(/C=C2/C(=O)NN(c3cccc(C)c3)C2=O)ccc1OC(=O)c1ccco1
→ -9.3	-1.1	84.8	x	i	0.94	x

# Order of results: PKD1 kinase inh	GALR2 ag	RGS16-Gao HTS	INS promoter inh cell count	HSV augment	HSV augment primary fold	INS promoter inh
> Cc1ccc(Cl)cc1NC(=O)COC(=O)c1ccc(N2CCCC2)c([N+](=O)[O-])c1
→ -8.8	-0.2	96.7	x	i	0.82	x
> COc1ccc(N/N=C(\C#N)C(=N)SCc2ccccc2)cc1
→ -0.9	x	98.6	x	i	0.76	x
> CN(NC1OC(=O)c2ccccc21)c1c([N+](=O)[O-])cc(C(F)(F)F)cc1[N+](=O)[O-] (centres undefined)
→ x	x	81.5	x	i	0.88	x
> CCCC[C@@H]1CNC(=S)N1CCCc1cc(OC)c(OC)c(OC)c1
→ 0.9	x	96.8	x	i	1.08	x
> CCN(CC)c1ccc(-n2c(C)c(C(C)=O)c(C(C)=O)c2C)cc1
→ 12.0	-2.0	103.6	x	i	0.87	x
> COc1cc(NC(=O)[C@@H](NC(=O)c2ccco2)C(C)C)c(OC)cc1NC(=O)c1ccccc1
→ 2.0	x	94.8	126.7	i	0.83	-13.3
> O=C1c2cnc3ncnn3c2CC2c3ccccc3CCN12 (centres undefined)
→ 4.2	x	108.0	62.3	i	0.96	15.0
> CCOC(=O)C1=C(Cn2cnc3ccccc32)NC(=O)NC1c1ccc(OC)cc1 (centres undefined)
→ -0.6	-0.9	108.2	84.6	i	0.89	53.3
> O=C(CSc1ccccn1)Nc1nc2c(ccc3ccccc32)s1
→ -8.5	-0.9	107.0	218.6	i	0.94	-25.0
> O=C(Oc1ccc(N(Cc2cccs2)C2=NS(=O)(=O)c3ccccc32)cc1)c1ccccc1
→ -8.9	-2.4	102.1	89.1	i	0.82	16.7
> O=C(NCC1(c2ccccc2)CCCC1)C(=O)N1CCOCC1
→ -14.5	-1.3	21.4*	73.9	i	0.99	29.7
> O=C(CCN1C(=O)/C(=C/c2ccc3c(c2)OCO3)SC1=S)Nc1ccccc1
→ -1.2	-0.5	135.7	x	i	1.09	x
> CCOc1ccc(Cl)cc1CSc1n[nH]c(CC)n1
→ -2.7	-2.9	97.2	x	i	0.88	x
> CCCn1c(SCC(=O)NCCc2ccccc2)nnc1C(C)C
→ x	x	99.2	x	i	1.01	x
> C=CCOc1c(Br)cc(CNc2ccc(NC(=O)C(C)C)c(OC)c2)cc1OC
→ -5.1	-2.5	87.6	124.9	i	1.11	-93.5
> COc1ccccc1NS(=O)(=O)c1cc(NC(=O)Nc2ccc(Cl)cc2Cl)ccc1N1CCCCC1
→ -15.3	0.2	143.6	75.6	i	0.88	24.0
> COc1ccc(N/N=C(/C#N)S(=O)(=O)C(C)(C)C)cc1
→ 0.6	x	101.5	x	i	0.96	x
> Cc1cccc(OCCSc2nncn2C)c1
→ 0.4	x	104.0	118.6	i	1	8.3
> CSc1nc(NC(C)(C)C)nc(Oc2ccc(=O)[nH]n2)n1
→ -4.9	-1.4	102.2	74.3	i	1.02	23.8
> COc1ccccc1NC(=O)CSc1nc(O)cc(=O)n1-c1ccccc1OC
→ -11.3	-1.8	110.3	105.7	i	0.9	25.0
> CCOc1ccc(NC(=O)CSc2nnc(CNC(=O)c3ccco3)o2)cc1
→ -1.7	x	99.8	126.2	i	0.97	-28.6
> COc1ccc2ccccc2c1/C=N/O
→ -3.4	-0.6	103.7	x	i	0.95	x
> CCC(=O)c1ccccc1OCCCn1cncn1
→ -7.5	-3.1	102.1	119.0	i	1.02	30.2
> CCOc1c(C)cc(-c2ncccc2O)cc1C
→ -2.4&-9.7	-1.2&-4.1	107.0&147.6	159.5*	i	0.9&0.81	81.8*
> CN(C)C(=O)NC1CCCCCCCCCCC1
→ -6.9	-2.3	105.4	100.0	i	0.99	-28.6
> COCCCn1c(SCC(=O)N2CCc3ccccc32)nnc1-c1ccco1
→ -9.2	-2.3	92.2	50.9	i	0.98	6.2
> CN1CCN(C(=O)C2=C[C@H](c3ccccc3)C[C@H](OCc3ccc(CO)cc3)O2)CC1
→ -1.4	x	99.3	x	i	1.05	x
> Cc1cc(-c2n[nH]c(=S)n2/N=C/c2ccc(Br)s2)n[nH]1
→ 0.9	1.7	101.7	107.7	i	0.87	2.0
> Cc1nc2c(o1)CCc1ccccc1C2O (centres undefined)
→ 3.5	-1.6	100.7	76.0	i	1	-21.4
> COC(=O)c1c(NC(=O)CSc2nc3ccccc3c(=O)n2Cc2ccco2)sc(C)c1C
→ 6.2	-2.6	99.6	114.9	i	1.12	-6.5

# Single entries from the entries so far:
# CN(C)C(=O)NC1CCCCCCCCCCC1 @ HSV augment primary fold = 0.99
# O=C(C1=C(O)C(=O)N(c2ncccn2)C1c1cccc(Cl)c1)c1ccco1 (centres undefined) @ INS promoter inh cell count = 209.2

# Continuation.
# Order of results: PKD1 kinase inh	GALR2 ag	RGS16-Gao HTS	INS promoter inh cell count	HSV augment	HSV augment primary fold	INS promoter inh
> CCOc1ccccc1NC(=S)NCc1cccn1C
→ 5.9	x	96.7	x	i	1.07	x
> Cc1cccc(NC(=O)c2cnc3sccn3c2=O)c1C
→ 8.2	-2.4	105.7	x	i	0.9	x
> O=C(CSc1ccccn1)Nc1nc2ccccc2s1
→ 6.0	-1.3	82.1	71.8	i	0.94	-6.9
> CCOc1c(CNCc2ccc(C(=O)O)cc2)cccc1OC
→ 9.2	x	104.2	96.7	i	0.98	-20.0
> O=C(Nc1ccccc1)NC1(C(=O)NCCCN2CCOCC2)CCCCC1
→ 2.1	-2.5	104.1	x	i	0.76	x
> O=C1CC(Nc2ccc(N3CCOCC3)cc2)C(=O)N1c1ccccc1 (centres undefined)
→ -8.2	-3.1	99.0	149.6	i	0.7	14.3
> CCN(CC)S(=O)(=O)c1ccc(-n2cnnn2)c(C)c1
→ -4.0	-0.4	105.7	166.2	i	0.88	-15.6
> CC1Cc2ccccc2N1C(=O)CSc1ncccc1C(=O)O (centres undefined)
→ 2.0	-1.1	x	141.2	i	0.93	-38.5
> CCCCNC(=S)Nc1ccc(F)cc1
→ x	x	96.7	x	i	0.96	x
> Cc1ccc(NCc2n[nH]c(=S)n2-c2ccccc2)cc1
→ -3.1	x	93.6	x	i	1.03	x
> CCOC(=O)c1c(C(F)(F)C(F)(F)C(F)(F)C(F)(F)F)n[nH]c1C
→ -3.7	-1.2	92.8	170.3	i	0.82	17.9
> CC(C)OCCCNC(=O)c1cccc(NC(=O)c2ccccc2)c1
→ 8.5	-0.6	121.1	142.8	i	0.96	28.9

# Compounds were not picked by outcome; overall some 1.1% were active at least once.
